High-throughput results: PubChem BioAssay, National Center for Advancing Translational Sciences (NCATS)
D2 PAM – Beta-Arrestin HTS for Positive Allosteric Modulators of the Human D2 Dopamine Receptor: Potentiators | DiscoveRx D2 beta-arrestin cells, luminescence, 90 min; 100% = 57 uM dopamine signal | 360,000 compounds, 0.23% hits | AID 624464, 2012 | potentiation, % (test concentration not listed); active = potentiation of 50% or more; inconclusive = 30% to 50%; inactive = 30% or less;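 also: compound concentration not given in the record; tested on top of an EC20 dose of dopamine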
Target sequence (P14416 whole entry, looked up): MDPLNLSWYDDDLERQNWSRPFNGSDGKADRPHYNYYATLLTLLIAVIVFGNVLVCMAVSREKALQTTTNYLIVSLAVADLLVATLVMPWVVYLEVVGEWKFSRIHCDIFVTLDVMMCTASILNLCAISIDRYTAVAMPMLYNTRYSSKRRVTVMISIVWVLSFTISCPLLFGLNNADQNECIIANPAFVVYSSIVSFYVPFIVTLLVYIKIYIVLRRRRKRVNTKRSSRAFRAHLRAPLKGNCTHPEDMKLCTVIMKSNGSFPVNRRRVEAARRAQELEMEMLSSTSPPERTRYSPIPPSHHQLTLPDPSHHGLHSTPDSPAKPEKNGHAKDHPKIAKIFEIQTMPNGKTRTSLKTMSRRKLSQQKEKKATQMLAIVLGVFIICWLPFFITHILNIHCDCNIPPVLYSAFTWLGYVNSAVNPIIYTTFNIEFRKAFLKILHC
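PathHunter beta-arrestin assay in DiscoveRx D2 cells. Compounds were added with an EC20 of dopamine (50 nM final) for 90 min at 37 deg C. Luminescence was read 1 h after detection reagent, with 57 uM dopamine as the EC100 control.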
Six1-Eya2 inh – qHTS Assay for Inhibitors of the Six1/Eya2 Interaction. Homeobox protein SIX1 (Homo sapiens) + Protein phosphatase EYA2 (Homo sapiens), …. activity change, % (no concentration beside the values). AlphaScreen GST-Six1/His-Eya2 binding, biochemical; active compounds read low; control for the full effect not named in the record. 360,000 compounds, 0.56% hits; in the data active = activity change below about -65%; inconclusive = about -30% to -65%; inactive = above about -30%; also: % is scaled to controls: 0 for no effect and ±100 for the full control effect
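Compounds are tested against tagged Six1 and Eya2 proteins bridged by glutathione donor and nickel acceptor beads; after a one-hour incubation at 37 °C without light, AlphaScreen emission is recorded.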
PINK1 modulator – A Quantitative High throughput Screen to Identify Chemical Modulators of PINK1 Expression. PINK1 immunofluorescence, high-content cytometry, 24 h. Potency, µM (series often up to 76.6 µM), without a hit: at the top dose activation (PINK1 increase), most hits filed as activators. 410,000 compounds, 0.2% hits. AID 624263, 2012; active = well fitted activation curve with a large enough effect; inconclusive = small, poorly fitted or top-dose-only effect; inactive = flat fitted curve, though single readings scatter; cell line not stated here;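 also: potency is read from the fitted curve at half-maximal effect; % of control where 0% means no effect; nearly all actives have a fitted effect of over 65% in size; a mitochondrial uncoupler was the plate control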
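Readout is PINK1 immunofluorescence, quantified alongside mitochondrial, cell and nuclear markers by laser-scanning microplate cytometry. Cells from a stable line were exposed to compound titrations (5 concentrations) for 24 hours, with CCCP controls.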
TRPML1 ag – qHTS for Agonists of the Human Mucolipin Transient Receptor Potential 1 (TRPML1). Mucolipin-1 (Homo sapiens), Q9GZU1. TRPML1-expressing cells, Ca2+ dye fluorescence, FDSS; host cell line not named in the record; reference of the full effect not given here. activation, % (no concentration beside the values). 410,000 compounds, 0.12% hits; in the data active = activation above about 50%; inconclusive = about 30% to 50%; inactive = below about 30%; also: 0% is about no effect; the text of the record puts the active cut at 80%
Target sequence (Q9GZU1 whole entry, looked up): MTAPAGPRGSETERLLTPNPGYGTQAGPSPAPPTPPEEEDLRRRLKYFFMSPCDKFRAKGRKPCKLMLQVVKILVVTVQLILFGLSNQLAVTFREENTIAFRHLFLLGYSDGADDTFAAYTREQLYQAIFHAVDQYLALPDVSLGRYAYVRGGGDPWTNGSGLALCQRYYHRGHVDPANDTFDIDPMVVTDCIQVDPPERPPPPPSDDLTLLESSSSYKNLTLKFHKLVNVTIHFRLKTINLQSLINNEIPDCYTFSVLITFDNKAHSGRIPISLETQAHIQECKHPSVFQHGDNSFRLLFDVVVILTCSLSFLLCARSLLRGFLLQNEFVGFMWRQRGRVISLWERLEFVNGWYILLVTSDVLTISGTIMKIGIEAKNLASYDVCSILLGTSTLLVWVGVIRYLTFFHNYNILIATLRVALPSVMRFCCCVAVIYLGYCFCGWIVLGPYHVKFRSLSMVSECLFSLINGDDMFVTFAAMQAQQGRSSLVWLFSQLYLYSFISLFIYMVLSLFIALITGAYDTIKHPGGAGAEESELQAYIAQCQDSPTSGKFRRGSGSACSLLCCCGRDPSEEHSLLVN
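Calcium fluorescence on an FDSS kinetic reader gave the read-out. Tet-induced TRPML1-DL cells were plated overnight, dye-loaded (Ca8 with quencher, 45-90 min, room temperature, dark), then read 110 s after compound addition, and again 110 s after 4uM final 54-4 (EC80).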
D2 ag – Beta-Arrestin HTS for Positive Allosteric Modulators of the Human D2 Dopamine Receptor: Agonists | 360,000 compounds, 0.084% hits | D(2) dopamine receptor (Homo sapiens), P14416 | DiscoveRx PathHunter D2 beta-arrestin, luminescence, 90 min; 100% = 57 uM dopamine signal | activation, % (no concentration beside the values); in the data active = activation above about 40%; inconclusive = about 15% to 40%; inactive = below about 15%; also: compound concentration not given in the record; the text of the record calls up to 30% inactive
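Agonist mode: compounds alone added to overnight-plated D2 PathHunter cells for 90 min at 37 C, with 57 uM final dopamine (EC100) defining full response. Beta-arrestin recruitment detected by chemiluminescent reagent, read after 1 h at ambient temperature.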
CtBP-E1A blk – qHTS Assay for Inhibitors of the CtBP/E1A Interaction; CtBP / adenovirus E1A interaction (AlphaScreen); AlphaScreen GST-E1A/His-CtBP binding, 1536-well; active compounds read low; control for the full effect not named in the record; activity change, % (concentration not given with the values); 340,000 compounds, 0.49% hits; AID 651724, 2012; in the data active means activity change below about -65%; inconclusive means about -30% to -65%; inactive means above about -30%; also: % is scaled to controls: 0 for no effect and ±100 for the full control effect
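GST-E1A and His-tagged CtBP (125 nM each as 5X stock) were preincubated with pin-transferred compound for 2 h at 37 °C in the dark, then glutathione donor and nickel acceptor beads were added for 1 h before AlphaScreen reading.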
* marks the source's active call; other numbers are inactive results; ? = inconclusive; / = not tested or not shown. No enrichment for hits. About 1.3% of those tested had a hit in this group.

Each structure is followed by: D2 PAM	Six1-Eya2 inh	PINK1 modulator	TRPML1 ag	D2 ag	CtBP-E1A blk
COCCNC(=O)c1cccc(Nc2nc(-c3ccccc3)c3cc(Cl)ccc3n2)c1
  -2.9	11.9	3.8%	2.4	-1.6	7.9
Cc1ccc(-c2nc(-c3ccccn3)sc2CC(=O)O)cc1
  -10.2	-3.8	2.1%	0.1	-1.2	/
Cc1ccc(C)n1-c1ccc(C(=O)N/N=C/c2ccncc2)cc1
  1.2	-9.7	5.6%	0.6	-7.0	0.9
COC(=O)COc1ccc(S(=O)(=O)NCc2ccco2)cc1
  5.8	-3.3	/	0.2	-0.5	-7.9
CC(=O)c1ccc2c(c1)OCCOCCOc1ccccc1OCCOCCO2
  0.3	-0.4	-2.6%	1.4	-0.7	-23.6
Cc1cccc(/C(N)=N/OC(=O)c2cccnc2)c1
  -0.8	5.6	2.6%	0.5	3.2	8.4
O=C(NCc1ccc2c(c1)OCO2)c1ccc(Cl)s1
  -4.5	-14.5	-2.0%	0.9	3.0	-10.2
COc1cc(CNC[C@H]2O[C@@H](n3ccc(N)nc3=O)[C@H](O)[C@@H]2O)ccc1OCc1cccc(Cl)c1
  /	-2.9	0.3%	/	-1.4	3.6
O=C(CCN1C(=O)C2C3C=CC(C3)C2C1=O)NC1CCCc2ccccc21 (stereo not drawn)
  1.2	4.9	1.2%	1.3	1.2	4.9
O=C(O)COc1ccc(/C=C2/SC(=S)N(Cc3ccccc3)C2=O)cc1
  2.4	-2.2	2.3%	/	-4.9	/
CCOC(=O)CCCCCC(=O)Nc1ccc2c(c1)C(=O)N([C@@H](C)CO)C[C@H](C)[C@H](CN(C)C(=O)Nc1ccc(F)cc1)OCCCC[C@H](C)O2
  -5.0	-3.1	2.8%	-0.6	-7.5	-11.8
CC(=O)c1c(C)n(C)c2ccc(OC(=O)c3ccc([N+](=O)[O-])cc3)cc12
  2.6	-0.1	-0.8%	0.8	-0.2	0.8
Cc1ccc(-n2ncc3c(SCc4ccccn4)ncnc32)c(C)c1
  -2.5	-21.6	-0.8%	0.0	-2.2	-17.4
O=C(O)/C=C/c1cnn(-c2ccccc2)c1
  0.1	1.2	0.4%	-0.5	-1.2	2.2
Cc1ccccc1CCNC(=O)C1CCN(S(=O)(=O)c2ccc(-n3cnnn3)cc2)CC1
  2.9	-3.6	6.5%	-0.4	-0.9	0.2
Cc1cccc(N2CCN(S(=O)(=O)c3cccc4nonc34)CC2C)c1 (stereo not drawn)
  -2.7	?	-0.3%	-0.3	-0.4	?
Cc1ccccc1C(=O)NC1CCN(CC(=O)Nc2ccc(N(C)C)cc2)CC1
  -45.5	-4.2	-2.0%	0.1	-4.4	/
OC1COC(OCc2ccccc2)C(O)C1O (stereo not drawn)
  -2.4	3.2	0.6%	0.5	9.4	4.5
CN(C)/C=N/c1sc2c(c1C(N)=O)CCCC2
  -9.9	-12.9	-1.0%	-1.2	-3.6	-0.8
CSc1nc(-c2ccccc2)c(C#N)c(=O)n1C
  -2.1	-4.4	-3.6%	1.4	0.8	-6.7
O=[N+]([O-])c1nn(-c2ccc(Cl)cc2)n(O)c1=NCc1ccncc1
  29.6	-4.8	1.7%	0.3	12.0	-0.9
Cc1ccn2cc(CCNC(=O)Cc3cccs3)nc2c1
  -5.0	-0.2	2.4%	-0.6	1.0	0.7
COC(=O)/C=C1\N/C(=N\c2nc(C)cc(C)n2)N(c2ccc(C)c(C)c2)C1=O
  4.4	12.2	1.9%	1.0	2.0	7.3
CN(Cc1cccc(F)c1)C(=O)c1ccc(S(=O)(=O)N2CCOCC2)cc1
  -4.4	4.4	2.2%	0.0	-3.7	/
CCC(C)NC(=S)N1CCN(Cc2ccc3c(c2)OCO3)CC1 (stereo not drawn)
  -14.1	10.4	0.3%	-0.1	-5.0	/
COC(=O)c1cccn(CC(=O)c2ccc(Cl)cc2)c1=O
  3.5	-0.4	0.8%	-0.2	0.4	0.0
COc1ccc(C/C(N)=N/OC(=O)Cc2ccccc2)cc1
  6.0	32.3	-0.1%	0.9	0.1	26.7
COCCNC(=O)c1c(N)n(-c2ccccc2)c2nc3ccccc3nc12
  -8.8	-0.9	/	0.4	-0.7	-3.4
O=C(COC(=O)C1CCN(c2ccc(C(F)(F)F)cn2)CC1)c1ccccc1
  -7.6	1.6	0.9%	4.4	-1.8	18.7
Cc1nc(Cl)c(N=Cc2cccc([N+](=O)[O-])c2)c(Cl)n1
  -8.4	7.0	0.4%	0.3	?	4.1
CC(=NNC(=S)Nc1ccc(C)cc1)c1ccccn1
  -34.9	-85.4*	-2.0%	3.0	-7.3	-7.6
COc1cccc2cc(C(C)N(CCCN3CCOCC3)C(=S)Nc3ccccc3C)oc12 (stereo not drawn)
  -20.2	-3.2	0.1%	1.1	-6.3	-6.7
Cc1nc2c(C(=O)N3CCN(C)CC3)cnn2c(C)c1Cc1ccc(Cl)cc1
  -22.3	0.1	?	1.0	-2.6	0.8
COc1cc(C)ccc1OCCOc1cc(C)ccc1Cl
  1.0	39.3	10.6%	2.7	-2.9	35.7
CCC1C(=O)C(C)(C)C(=O)OC1c1ccc([N+](=O)[O-])cc1 (stereo not drawn)
  -1.2	-3.7	-0.5%	1.1	4.3	-5.3
CC(C)(O)C#Cc1ccc(CNC[C@H]2O[C@@H](n3cnc(C(N)=O)n3)[C@H](O)[C@@H]2O)s1
  3.5	-1.9	-0.1%	-0.7	-0.7	1.0
Cc1cc(C(=O)N/N=C/c2cccc(Cl)c2Cl)no1
  -19.9	-2.8	0.8%	-1.0	1.7	-9.0
COc1ccc(N(C(C)C(=O)NCc2ccco2)S(C)(=O)=O)cc1 (stereo not drawn)
  16.1	-1.0	-1.2%	1.9	-2.0	5.3
CCCCc1nc2cc(C(=O)N3CCCC3)ccc2o1
  -1.6	8.0	2.5%	2.0	-3.6	/
O=C(NC1CSC/C1=N\O)c1ccccc1 (stereo not drawn)
  -15.5	2.5	?	-0.6	-3.1	4.1

Grouped by structure: the entries above containing a COOH group.
Each structure is followed by: D2 PAM	Six1-Eya2 inh	PINK1 modulator	TRPML1 ag	D2 ag	CtBP-E1A blk
Cc1ccc(-c2nc(-c3ccccn3)sc2CC(=O)O)cc1
  -10.2	-3.8	2.1%	0.1	-1.2	/
O=C(O)COc1ccc(/C=C2/SC(=S)N(Cc3ccccc3)C2=O)cc1
  2.4	-2.2	2.3%	/	-4.9	/
O=C(O)/C=C/c1cnn(-c2ccccc2)c1
  0.1	1.2	0.4%	-0.5	-1.2	2.2

The listing continues.
Each structure is followed by: D2 PAM	Six1-Eya2 inh	PINK1 modulator	TRPML1 ag	D2 ag	CtBP-E1A blk
CCC(C)[C@H](NC(=O)NCCC1=CCCCC1)C(=O)OC (stereo partly drawn)
  -2.2	6.0	1.8%	2.7	-1.9	-3.3
CCNc1cc(N2CCCC2)ccc1[N+](=O)[O-]
  -6.0	-11.4	1.5%	2.1	-5.4	-6.4
CCCCNC(=O)n1c(=O)oc2ccc(Cl)cc21
  -9.0	0.0	-1.6%	3.7	-2.4	2.6
O=C(Nc1cccc2ccccc12)/C(=C\c1cccc([N+](=O)[O-])c1)NC(=O)c1cccs1
  -7.1	-6.7	2.8%	2.6	-1.7	0.0
O=C(CSc1nnc(NC(=O)C2CC2)s1)Nc1ccc(F)cc1F
  20.2	4.2	-2.4%	1.9	4.0	6.8
COc1cc(NC(=O)CSc2nnc3ccc(-c4cccnc4)nn23)cc(OC)c1
  -10.8	-8.4	4.5%	0.3	?	7.1
COc1cccc(CNC(=O)CCCCCNC(=O)N2CCn3c2nc2ccccc23)c1
  7.9	-9.8	-1.0%	-1.2	-0.4	-12.5
COc1cc2c(cc1[N+](=O)[O-])n(C(C)C)c(=O)n2C(C)C
  2.6	-3.9	0.2%	0.7	-3.1	/
O=c1c2cnn(-c3ccc(F)cc3)c2ncn1Cc1ccccc1
  -10.9	5.5	3.0%	-0.9	2.2	1.3
Cc1cc(C(=O)CSc2nnc(-c3ccccc3)n2Cc2ccc3c(c2)OCO3)c(C)n1C
  1.4	-14.0	3.2%	0.2	-1.5	-10.0
COc1ccc(-c2c(-c3cccc(C)c3)oc3ccc(-c4ccc5c(c4)OCO5)cc23)cn1
  -0.4	3.3	-1.3%	-0.8	-1.8	-1.0
CS(=O)(=O)N1CCC(C(=O)Nc2cc(Cl)ccc2Cl)CC1
  -0.8	1.7	-0.1%	-1.0	-0.8	4.7
Cc1ccc(C)c(Cn2c3ccccc3c3cnn(CC(=O)NCCN4CCOCC4)c(=O)c32)c1
  -9.5	-3.7	0.2%	-0.4	-3.2	-1.7
CN(C)S(=O)(=O)c1ccc(N2CCCC2)c(C(=O)NNC(=O)COc2cccc(F)c2)c1
  -4.1	-0.3	-1.3%	-0.6	-1.2	/
Cc1ccc(OC(=O)c2oc3ccc(F)cc3c2C)c(C)c1
  -2.9	63.7	/	1.5	6.1	39.6
O=C(Nc1cccc(Cl)c1)c1cc(N=Nc2ccc([N+](=O)[O-])cc2Cl)ccc1O
  -1.5	-27.7	?	2.6	8.5	/
O=C(O)c1ccccc1-c1ccccc1C(=O)Nc1ccc(F)cc1
  -4.9	-19.7	0.8%	-0.4	-5.0	-11.2
CC1=C(C)CC(C(=O)Nc2nccs2)C(C(=O)O)C1 (stereo not drawn)
  5.4	2.3	3.9%	-0.3	-1.5	8.3
COCC(=O)N1CCC(Oc2ccc(C(=O)NCc3cc(C(C)C)no3)cc2)CC1
  -0.4	-4.1	0.3%	1.1	-1.6	10.2
